# Assay outcomes as filed in PubChem.
# PKD1 kinase inh – PKD1 (human) kinase inhibition; inhibition, %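 (about 10 µM by stock and volumes)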; PKD1 kinase fluorescence polarization assay; Q15139; 200,000 tested, 0.056% active;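 active means inhibition of 50% or more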;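 further: controls were vehicle for no effect and a reference inhibitor for full effect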
# Target sequence (Q15139 whole entry, looked up): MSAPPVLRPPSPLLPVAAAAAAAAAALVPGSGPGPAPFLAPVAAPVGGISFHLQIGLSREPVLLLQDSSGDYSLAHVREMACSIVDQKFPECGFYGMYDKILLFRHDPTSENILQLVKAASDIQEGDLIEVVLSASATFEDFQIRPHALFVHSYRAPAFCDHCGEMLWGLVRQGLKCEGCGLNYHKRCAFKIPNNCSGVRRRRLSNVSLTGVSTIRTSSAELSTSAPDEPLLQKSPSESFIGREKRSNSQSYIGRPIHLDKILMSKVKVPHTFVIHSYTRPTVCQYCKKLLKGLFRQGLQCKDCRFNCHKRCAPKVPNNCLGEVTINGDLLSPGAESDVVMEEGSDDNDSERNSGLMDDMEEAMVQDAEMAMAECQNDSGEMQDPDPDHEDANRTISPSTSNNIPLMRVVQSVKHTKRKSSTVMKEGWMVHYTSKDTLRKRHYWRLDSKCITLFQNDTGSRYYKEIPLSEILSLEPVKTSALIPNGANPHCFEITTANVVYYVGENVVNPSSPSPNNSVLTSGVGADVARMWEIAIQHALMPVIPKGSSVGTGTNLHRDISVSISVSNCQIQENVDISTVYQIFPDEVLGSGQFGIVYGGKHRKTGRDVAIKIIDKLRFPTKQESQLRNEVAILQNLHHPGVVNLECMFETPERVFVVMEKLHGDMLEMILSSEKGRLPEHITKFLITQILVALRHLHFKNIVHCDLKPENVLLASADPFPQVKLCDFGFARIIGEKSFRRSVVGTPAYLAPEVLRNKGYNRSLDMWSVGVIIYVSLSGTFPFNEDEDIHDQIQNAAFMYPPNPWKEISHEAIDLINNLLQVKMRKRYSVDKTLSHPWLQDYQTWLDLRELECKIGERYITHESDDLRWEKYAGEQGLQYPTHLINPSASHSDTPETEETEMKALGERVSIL
# GALR2 agonist – activates the human galanin receptor 2. O43603. GALR2-expressing cells, agonist activation read-out. activation, %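 (tested at 5 µM)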. 140,000 tested, 0.48% active;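 active means above mean plus 3 SD of all compounds, about 5% in these data, not always enough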;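 further: 0% = vehicle buffer wells and 100% = reference agonist at full effect; tested in CHO reporter cells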
# HSV augment – increases HSV replication in cells | HSV replication augmentation in cells, fold increase | maximum fold increase | 220,000 tested, 0.005% active;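 active means peak rise of 1.5-fold or more in the series; tested in PC3 cells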;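 further: first round at 10 µM; read as green reporter fluorescence; hits show the peak of a series up to 25 µM; 1 = signal of infected wells without compound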
# INS promoter inh – TRM-6 insulin promoter activity inhibition; 130,000 tested, 0.9% active; TRM-6 cells (human fetal islet line), insulin promoter-eGFP reporter, imaging; reporter expression induced with tamoxifen; AID 1273; inhibition, % at 2 µM;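 active means inhibition above the mean plus 3 SD, with well images judged a real hit on visual review, cut at about 60% in these data, passing the limit was not always enough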
# RGS16-Gao – RGS16-Galphao interaction regulator (human) | O15492+P09471 | bead-based flow cytometry RGS16-Galphao binding, fluorescence; actives lie on both sides | binding response (% of control), % at 10 µM | 220,000 tested, 0.38% active;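 active means below 25% or above 175%, edge rows of some plates excepted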;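 further: Galphao activated by GDP with aluminum fluoride before binding; 100% = wells without compound and 0% = beads without RGS; some results beyond the cut were filed as inactive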
# INS promoter inh cell count – recorded beside INS promoter inh, whose call it bears; normalized cell count, %; measured here: cell count, toxicity; reference of the scale not given here;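 cells exposed to compound for 48 h; stained nuclei by imaging scaled within each plate; lower means fewer cells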
# HSV augment primary fold – recorded beside HSV augment, whose call it bears; fold increase; compound at 10 µM; measured here: primary screen fold increase 10 uM; tested in PC3 cells;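 GFP signal in the first replicate; 1 = infected wells without compound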
# An asterisk follows results filed as active; i = inactive; nt = no result given; [ ] = remark or other dose.
# Letter code – A = PKD1 kinase inh; B = GALR2 agonist; C = HSV augment; D = HSV augment primary fold; E = INS promoter inh; F = INS promoter inh cell count; G = RGS16-Gao
O=S(=O)(c1ccc(Cl)cc1)N1CCCC1c1cccnc1 (stereo not drawn)
  A: nt	B: nt	C: i	D: 0.98	E: nt	F: nt	G: 101.2
CCN1CCN(c2cc(N3CCCC3)c(F)cc2[N+](=O)[O-])CC1
  A: -3.3	B: 0.2	C: i	D: 0.83	E: -54.5	F: 78.5	G: 183.9*[activator]
C=CCn1c(=O)/c(=C\c2ccccn2)s/c1=C(/C#N)C(=O)NCC1CCCO1 (stereo not drawn)
  A: -15.5	B: nt	C: i	D: 1.39	E: nt	F: nt	G: 100.9
Cn1c(O)c(C(=NCCN2CCCCC2)c2ccccc2Cl)c(=O)n(C)c1=O
  A: 1.7	B: -0.5	C: i	D: 0.81	E: nt	F: nt	G: 92.6
CNC(=O)N(C)c1nnc(C(C)(C)C)s1
  A: -3.0	B: -0.6	C: i	D: 0.96	E: -30.8	F: 96.6	G: 102.2
CCCCOCCCn1c(N)c(C(=O)OCCOC)c2nc3ccccc3nc21
  A: -5.9	B: -1.1	C: i	D: 1	E: nt	F: nt	G: 101.6
O=C(CN1CCCCC1)NCC(=O)Nc1ccc(Br)cc1C(=O)c1ccccc1
  A: 3.3	B: -1.8	C: i	D: 0.87	E: nt	F: nt	G: 101.4
CN1c2ccc([N+](=O)[O-])cc2CC2(C(=O)NC(=O)N(c3ccc(Br)cc3)C2=O)C1c1ccccc1 (stereo not drawn)
  A: 2.4	B: -0.4	C: i	D: 1.14	E: nt	F: nt	G: 163.4
O=C(c1ccc2c(=O)n(Cc3ccc4c(c3)OCO4)c(=S)[nH]c2c1)N1CCC2(CC1)OCCO2
  A: 2.0	B: -0.4	C: i	D: 1.06	E: 57.1	F: 124.9	G: 101.8
CCCC(C)n1[nH]c(=O)c2c1NC(=O)CSC2c1ccccc1 (stereo not drawn)
  A: nt	B: nt	C: i	D: 0.94	E: nt	F: nt	G: 89.0
COc1ccc(C(=O)C(Cc2ccccc2)N(C)C)cc1 (stereo not drawn)
  A: -19.9	B: -3.1	C: i	D: 0.89	E: -3.7	F: 122.2	G: 106.0
OC(c1ccc(F)cc1)C(c1ccccc1)N1CCOCC1 (stereo not drawn)
  A: -7.7	B: -2.0	C: nt	D: nt	E: -10.7	F: 118.4	G: 103.0
CN1CCN(c2ccc([N+](=O)[O-])c(NCc3ccco3)c2)CC1
  A: -12.0	B: 0.2	C: i	D: 0.83	E: -25.9	F: 63.6	G: 108.5
COc1ccc(CCN)cc1OC
  A: nt	B: nt	C: i	D: 1.17	E: nt	F: nt	G: 92.8
CC(=NCCCN1CCOCC1)c1c(O)n(Cc2ccccc2)c(=O)[nH]c1=O
  A: -6.3	B: -0.6	C: i	D: 0.82	E: nt	F: nt	G: 96.5

# Structural class, the compounds so far containing an aryl methoxy group
# Letter code – A = PKD1 kinase inh; B = GALR2 agonist; C = HSV augment; D = HSV augment primary fold; E = INS promoter inh; F = INS promoter inh cell count; G = RGS16-Gao
COc1ccc(C(=O)C(Cc2ccccc2)N(C)C)cc1 (stereo not drawn)
  A: -19.9	B: -3.1	C: i	D: 0.89	E: -3.7	F: 122.2	G: 106.0
COc1ccc(CCN)cc1OC
  A: nt	B: nt	C: i	D: 1.17	E: nt	F: nt	G: 92.8

# The list continues:
# Letter code – A = PKD1 kinase inh; B = GALR2 agonist; C = HSV augment; D = HSV augment primary fold; E = INS promoter inh; F = INS promoter inh cell count; G = RGS16-Gao
O=c1[nH]c(=O)n(Cc2ccc(F)cc2)c(O)c1C=NCCN1CCCCC1
  A: -3.8	B: -0.5	C: i	D: 0.85	E: 24.2	F: 92.9	G: 122.3
COCCCNC(=O)c1c(NC(=O)c2ccccc2)n(Cc2ccccc2)c2nc3ccccc3nc12
  A: -7.8	B: -1.5	C: i	D: 0.91	E: nt	F: nt	G: nt
O=C(Nc1ccccc1)c1cc([N+](=O)[O-])ccc1N1CCNCC1
  A: -4.0	B: nt	C: i	D: 1.06	E: nt	F: nt	G: 95.7
CN(C)c1ccc(/C=C2\C(=O)NC(=O)N(Cc3ccc(F)cc3)C2=O)cc1
  A: nt	B: nt	C: i	D: 0.96	E: nt	F: nt	G: 100.5
O=c1[nH]c(=O)n(Cc2ccccc2)c(O)c1/C=N/Nc1c(F)c(F)c(F)c(F)c1F
  A: nt	B: nt	C: i	D: 1.07	E: nt	F: nt	G: 99.3
COC(=O)C(c1ccccc1)N1CCCCCC1 (stereo not drawn)
  A: 2.3	B: -0.1	C: i	D: 0.68	E: -25.0	F: 86.8	G: 103.8
CCC12CN3CCN(CC(C3)C1O)C2 (stereo not drawn)
  A: -6.5	B: -1.5	C: i	D: 0.74	E: 50.0	F: 83.8	G: 104.3
COc1ccc(-n2cnc3cc(C(=O)N4CCC5(CC4)OCCO5)ccc32)cc1
  A: -3.3	B: nt	C: i	D: 0.71	E: nt	F: nt	G: 93.2
COc1ccc(CCNC2CCCCC2)cc1OC
  A: -3.1	B: nt	C: i	D: 0.87	E: 55.0	F: 104.5	G: 99.9
O=C1NC(=O)N(c2ccccc2)C(=O)/C1=C/C=C/c1ccco1
  A: nt	B: nt	C: i	D: 0.86	E: nt	F: nt	G: 100.0
CCOC(=O)C1CCN(/C=C2/C(=O)NC(=S)N(c3cccc(OC)c3)C2=O)CC1
  A: -3.6	B: nt	C: i	D: 1.06	E: nt	F: nt	G: 103.2
Oc1c(Cl)cc(Cl)cc1CN1CCN(Cc2ccccc2)CC1
  A: -5.6	B: -1.0	C: i	D: 1	E: -110.0	F: 71.1	G: 99.8
c1ccc2c3c([nH]c2c1)C1(CCNCC1)NCC3
  A: nt	B: nt	C: i	D: 0.79	E: nt	F: nt	G: 96.0
CC(c1ccccc1)(c1ccccc1)c1ccncc1
  A: -0.2	B: nt	C: i	D: 0.95	E: nt	F: nt	G: 87.7
O=Cc1c(C(=O)O)n(Cc2ccccc2Cl)c2ccccc12
  A: 6.3	B: nt	C: i	D: 0.86	E: 5.9	F: 116.8	G: 98.9
O=C(COc1ccc(Cl)cc1)N1CCN(Cc2ccccc2)CC1
  A: -6.4	B: -1.1	C: i	D: 0.82	E: nt	F: nt	G: 99.9
CCCCn1c(O)c(C(C)=Nc2ccc3c(c2)CCC3)c(=O)[nH]c1=O
  A: nt	B: nt	C: i	D: 1.04	E: nt	F: nt	G: 102.4
CCC(=NCCC(c1ccccc1)c1ccccc1)c1c(O)[nH]c(=O)[nH]c1=O
  A: -2.9	B: 0.5	C: i	D: 0.93	E: -37.9	F: 72.5	G: 107.8
CCOC(=O)c1c(C)n(Cc2ccco2)c2c1cc(O)c1ccccc12
  A: -10.2	B: 0.8	C: i	D: 0.83	E: -10.7	F: 137.5	G: 89.3
COc1ccc(C2=NCC(=O)N(CC(=O)NCc3ccco3)c3sc4c(c32)CCCC4)cc1
  A: 9.9	B: -0.1	C: i	D: 0.88	E: nt	F: nt	G: 111.2
Cc1nn(Cc2ccccc2)c(Cl)c1C(=O)OC(C)C(=O)Nc1ccc(F)cc1Cl (stereo not drawn)
  A: 1.3	B: -0.7	C: i	D: 0.84	E: -30.0	F: 123.8	G: 106.3
COc1cc(CN=Cc2c(O)n(C(C)(C)C)c(=O)[nH]c2=O)cc(OC)c1
  A: nt	B: nt	C: i	D: 0.95	E: nt	F: nt	G: 94.0
O=c1[nH]c(=O)n(CCC2=CCCCC2)c(O)c1C=NC1CCN(Cc2ccccc2)CC1
  A: -5.6	B: -0.5	C: i	D: 0.89	E: -30.6	F: 97.5	G: 98.9
C=CCN1CC[C@]23c4c5ccc(O)c4O[C@H]2C(=O)CC[C@@]3(O)[C@H]1C5
  A: 3.9	B: nt	C: i	D: 0.78	E: -26.7	F: 91.5	G: 54.2
O=P(Nc1ccccc1)(Nc1ccccc1)Oc1ccc(Cl)cc1
  A: 2.9	B: -1.2	C: nt	D: nt	E: -51.7	F: 78.5	G: 100.2
O=C(c1ccc(CS(=O)(=O)c2ccc(Br)cc2)o1)N1CCC2(CC1)OCCO2
  A: -10.2	B: 0.2	C: i	D: 0.81	E: nt	F: nt	G: 99.5
CC1CCC(C(C)C)C(OC(=O)COC(=O)c2ccccc2N)C1 (stereo not drawn)
  A: -6.1	B: 0.0	C: i	D: 1.06	E: 23.7	F: 81.7	G: 108.0
Cc1ccc(S(=O)(=O)N2CCCC2c2cccnc2)cc1 (stereo not drawn)
  A: nt	B: nt	C: i	D: 1.09	E: nt	F: nt	G: 92.7
O=P(/C(=N/O)N1CCCCC1)(N1CCOCC1)N1CCOCC1
  A: 6.7	B: -2.8	C: i	D: 0.91	E: 34.5	F: 125.0	G: 100.2
COc1ccccc1N1CCN(Cc2ccccc2Cl)CC1
  A: -5.3	B: -0.7	C: i	D: 0.87	E: nt	F: nt	G: 105.5
CN1CCc2nc(SCc3ccccc3Br)c(C#N)cc2C1
  A: 3.8	B: nt	C: i	D: 1.13	E: nt	F: nt	G: 100.9
Cc1cc(OC(=O)N(C)C)n(-c2ccccc2)n1
  A: nt	B: nt	C: i	D: 0.92	E: nt	F: nt	G: -15.0*
Cc1ccccc1NC1=NCC(C)S1 (stereo not drawn)
  A: -8.4	B: -0.6	C: i	D: 0.81	E: nt	F: nt	G: 99.6
CC1CCCC(NC(=O)COC(=O)Cc2ccccc2)C1C (stereo not drawn)
  A: -4.6	B: -2.3	C: i	D: 0.87	E: -10.8	F: 112.1	G: 31.7
COc1cc(CC2C(=O)N(C)C(=O)N(C)C2=O)ccc1OCc1ccccc1
  A: -2.8	B: 0.5	C: i	D: 0.91	E: nt	F: nt	G: 103.2
CCN1CCN(Cc2cc(Br)cc(Br)c2O)CC1
  A: 2.8	B: 0.5	C: i	D: 0.88	E: 2.9	F: 111.2	G: 107.5
O=C1NC(=O)N(c2ccc3c(c2)OCO3)C(=O)/C1=C/c1cccs1
  A: 4.8	B: nt	C: nt	D: nt	E: 14.3	F: 173.7	G: 101.7
COc1ccc(CC2(CCc3ccncc3)C(=O)NC(=O)NC2=O)cc1
  A: -2.3	B: nt	C: i	D: 1.12	E: 16.7	F: 94.1	G: 90.7
CN(C)CCn1cnc2ccccc21
  A: nt	B: nt	C: i	D: 0.94	E: nt	F: nt	G: 112.6
COc1ccc(C(O)P(=O)(OC(C)C)OC(C)C)cc1 (stereo not drawn)
  A: nt	B: nt	C: i	D: 0.96	E: nt	F: nt	G: 103.2
O=C1CSC2(CN3CCC2CC3)N1 (stereo not drawn)
  A: -3.0	B: -0.1	C: nt	D: nt	E: -16.7	F: 118.0	G: 101.4
CN(C)c1nc(N(C)C)nc(N(C#N)CCCl)n1
  A: 0.7	B: nt	C: i	D: 1	E: nt	F: nt	G: 114.0
C[C@@H]1C2C[C@@]34COC(=O)C3=CC=C[C@H]4[C@@]13C[C@H](c1ccoc1)O[C@@H]3O2
  A: -13.1	B: -1.3	C: i	D: 0.8	E: -30.0	F: 79.1	G: 74.5
O=P(Nc1cccnc1)(Oc1ccccc1Cl)Oc1ccccc1Cl
  A: -3.8	B: -0.9	C: i	D: 0.93	E: nt	F: nt	G: 95.8
COc1cc([C@@H]2c3cc4c(cc3[C@@H](OC)[C@H]3COC(=O)[C@H]23)OCO4)cc(OC)c1O
  A: nt	B: nt	C: i	D: 0.59	E: nt	F: nt	G: 95.0
COc1cc(C)cc(CN2CC=C(c3ccccc3)CC2)c1O
  A: -3.0	B: nt	C: i	D: 1.06	E: nt	F: nt	G: 101.4
CCc1nnc(NS(=O)(=O)c2ccc(N=Cc3c(O)n(-c4ccccc4)c(=O)[nH]c3=O)cc2)s1
  A: 5.9	B: nt	C: i	D: 1.16	E: nt	F: nt	G: 102.2
O=C(CCCCCn1c(=S)[nH]c2ccccc2c1=O)N1CCC2(CC1)OCCO2
  A: -3.9	B: -0.6	C: i	D: 0.91	E: nt	F: nt	G: 97.1
COc1ccc(C(O)c2ccccc2OP(=O)(N(C)C)N(C)C)cc1 (stereo not drawn)
  A: 5.0	B: -0.1	C: i	D: 1.14	E: 25.0	F: 76.7	G: 67.0
Brc1ccc(CN2CCNCC2)s1
  A: 4.4	B: -2.9	C: i	D: 0.97	E: 43.5	F: 107.9	G: 101.3
CN(C)CC#CCn1c2ccccc2c2ccccc21
  A: nt	B: nt	C: i	D: 0.84	E: nt	F: nt	G: 96.0

# Looked up above.
# Reading for Brc1ccc(CN2CCNCC2)s1 under PKD1 kinase inh: 4.4
# Reading for O=C(CCCCCn1c(=S)[nH]c2ccccc2c1=O)N1CCC2(CC1)OCCO2 under RGS16-Gao: 97.1
# Reading for CCc1nnc(NS(=O)(=O)c2ccc(N=Cc3c(O)n(-c4ccccc4)c(=O)[nH]c3=O)cc2)s1 under PKD1 kinase inh: 5.9
# Reading for COc1ccc(C(O)c2ccccc2OP(=O)(N(C)C)N(C)C)cc1 (stereo not drawn) under INS promoter inh cell count: 76.7

# A portion of the library, so the mix of outcomes need not match the whole.
